# High-throughput results as filed in PubChem BioAssay.
# YopH PTP inh: YopH tyrosine phosphatase inhibitors, primary screen, biochemical, fluorescence Ex485/Em525. inhibition, %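 (about 10 µM by stock and volumes)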. hit rate 0.16% among 140,000;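 active means inhibition of 50% or more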;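 further: controls were vehicle for no effect and minimum signal wells for full effect; inactives centre near -20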
# Mtb betalactam: beta-lactam sensitization of Mtb H37Rv, H37Rv; inhibition, % at 25 µM; hit rate 0.27% among 330,000; M. tuberculosis H37Rv growth with meropenem, percent inhibition; hits of this screen are not shown here; AID 434955, 2010;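 active means about 74% or more and at least 40 points above the plate without the antibiotic, then above 30% in a dose series; inconclusive means first-round hits that could not be retested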;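 further: growth measured after seven days incubation then overnight dye step; 0% = bacteria only wells and 100% = bacteria with antibiotic; twin plates without the antibiotic show which effects depend on it; some results filed as inactive read as strong as hits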
# Arbovirus inh: antivirals against arbovirus infection, primary screen, cell-based, full library, 10K replicate subset; arbovirus infection cell-based antiviral screen; inhibition, % at 10 µM; hit rate 0.37% among 200,000;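 active means inhibition from about 30%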;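 further: bluetongue infection of BSR cells; cell survival read as ATP light after 72 h; 0% = infected wells without compound and 100% = uninfected wells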
# Mtb H37Rv: M. tuberculosis H37Rv growth inhibitors, H37Rv strain (AID 1626); M. tuberculosis H37Rv growth inhibition; higher % means a stronger effect; hit rate 0.95% among 220,000; one-dose inhibition, % at 10 µM; IC50 in µM for titrated hits;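 active means confirmed in a dose series; inconclusive means inhibition above 80% but not taken into the dose series; inactive means below 80% or under 30% at every dose of the series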;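 further: bacteria incubated seven days before Alamar blue readout; 0% = bacteria only wells and 100% = bacteria with antibiotic wells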
# RecA splice inh: Mtb RecA intein splicing inhibitors, primary screen, biochemical, fluorescence, HTS; inhibition, %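 (about 9 µM by stock and volumes)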; hit rate 0.75% among 290,000; AID 2221, 2009; Protein RecA (Mycobacterium tuberculosis (strain ATCC 25618 / H37Rv)), P9WHJ3; cell-free RecA intein splicing; in the data active means inhibition above about 30%; inconclusive means no clear call, values can overlap the other calls;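 further: 0% = vehicle wells and 100% = reference inhibitor control wells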
# Target sequence (P9WHJ3 whole entry, looked up, canonical isoform): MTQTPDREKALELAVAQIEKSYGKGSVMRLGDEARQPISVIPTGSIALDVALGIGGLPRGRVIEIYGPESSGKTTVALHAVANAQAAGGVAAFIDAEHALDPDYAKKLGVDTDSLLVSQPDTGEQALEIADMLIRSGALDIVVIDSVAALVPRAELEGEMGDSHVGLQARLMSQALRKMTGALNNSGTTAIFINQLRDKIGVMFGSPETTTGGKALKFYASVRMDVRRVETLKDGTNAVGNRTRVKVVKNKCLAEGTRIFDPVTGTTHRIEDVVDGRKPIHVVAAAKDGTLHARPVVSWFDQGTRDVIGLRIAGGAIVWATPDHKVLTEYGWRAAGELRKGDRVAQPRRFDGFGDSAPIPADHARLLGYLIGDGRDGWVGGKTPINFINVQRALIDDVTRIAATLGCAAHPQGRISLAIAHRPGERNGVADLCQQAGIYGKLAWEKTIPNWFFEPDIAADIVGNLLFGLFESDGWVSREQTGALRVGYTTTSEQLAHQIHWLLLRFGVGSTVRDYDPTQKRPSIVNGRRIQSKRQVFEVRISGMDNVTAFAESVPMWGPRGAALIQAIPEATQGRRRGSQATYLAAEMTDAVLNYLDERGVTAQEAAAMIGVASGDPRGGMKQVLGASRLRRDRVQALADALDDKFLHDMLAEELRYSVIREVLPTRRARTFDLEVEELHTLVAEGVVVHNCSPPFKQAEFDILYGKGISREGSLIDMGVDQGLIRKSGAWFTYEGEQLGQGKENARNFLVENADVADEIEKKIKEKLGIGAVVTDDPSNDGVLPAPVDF
# Arbovirus inh repeat: also measured in Arbovirus inh; calls as there; inhibition, %; measured here: 10K subset replicate screen; many hits read low in the repeat;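 first of two repeat runs on a subset; 0% = infected and 100% = uninfected wells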
# Active calls of the source: *; ? = inconclusive; . = no result given; & = joins results of further samples. The list is partial; count on the stated rates, not on these rows.
SMILES,YopH PTP inh,Mtb betalactam,Arbovirus inh,Mtb H37Rv,RecA splice inh,others
CCOC(=O)c1c(C)[nH]c(C)c1C(=O)CSc1nc2ccccc2c(=O)n1-c1ccccc1C,-6,11,-7,21%,9.9,
O=C(Nc1nn(Cc2ccccc2F)cc1Br)c1cccs1,-12,-6,-1,2%,-1.4,
CCN(C(=O)COC(=O)/C=C/c1cnc2ccccc2n1)C1CCS(=O)(=O)C1 (stereo not given),.,2,-2,2%,-2.2,
CN(C)S(=O)(=O)c1ccc(NC(=O)COC(=O)C2COc3ccccc3O2)cc1 (stereo not given),.,0,5,7%,1.0,
Cc1ccc(NC(=O)CN(C)C(=O)CSc2nc(C)cs2)cc1,.,-9,-1,5%,.,
CCOC(=O)N1CCN(C(=O)c2cccc(NC(=O)c3ccco3)c2)CC1,30,-6,9,3%,0.5,
CCCCCCCCCCOC(=O)Cn1c(COc2ccc(OC)cc2)[n+](C)c2ccccc21,.,78&77,.,.,42*,
O=C(COc1ccc(Cl)cc1Cl)NC(=O)N1CCCCC1,-27,-2,4,-3%,1.2,
COc1ccc(N2CC(C(=O)Nc3c(C(N)=O)oc4ccccc34)CC2=O)cc1 (stereo not given),.,2,.,.,-1.8,
O=C(c1cnn2c1NC(c1ccc(Br)cc1)CC2C(F)(F)F)N1CCN2CCCC2C1 (stereo not given),-26,22,-13,2%,-1.3,
Cc1ccc(CN2CC(C(=O)Nc3ccc(C)cn3)CC2=O)cc1 (stereo not given),.,-9,.,.,0.7,
Cc1cc(NC(=O)C2CC(=O)N(c3ccc(F)cc3)C2)no1 (stereo not given),.,3,.,.,-0.1,
Cc1ccc(NC(=O)CCC(=O)NNC(=O)c2cccc([N+](=O)[O-])c2)cc1C,-25,27,-1,53%,-6.4,
Cc1ccc(S(=O)(=O)NC(=O)c2cccc(Br)c2)cc1,.,-14,.,.,0.8,
COc1ccccc1CNC(=O)C1CCN(c2ncnc3c2nc2n3CCCCC2)CC1,.,-8,.,.,-0.7,
O=C(CSc1ccccn1)NCc1ccc2c(c1)OCO2,.,6,-1,7%,-3.6,
Cc1ccc(CNC(=O)COC(=O)c2cncc(Br)c2)cc1,.,2,9,-3%,-2.7,
CCOc1ccc(/C=C/C(=O)N(CC)CC(=O)Nc2ccc3c(c2)OCCO3)cc1OC,.,0,.,.,-2.5,
COc1ccc(C(=O)NCC(=O)OCC(=O)N2CCC(C)CC2)cc1OC,.,-5,5,0%,0.8,
O=C(Nc1ccccc1)N1CCCN(Cc2ccccc2F)C1,-28,6,0,-9%,-0.8,
COc1ccccc1/C=N/NC(=O)CCSc1ccccc1,-17,-3,-4,3%,0.6,
O=C(C1=C(O)C(=O)N(CC2CCCO2)C1c1ccccc1[N+](=O)[O-])c1ccco1 (stereo not given),.,-7,.,.,-3.2,
COCC1CCN(Cc2c(C(=O)N3CCN(C4CCCCC4)CC3)nc3ccccn23)C1 (stereo not given),.,-4,.,.,-54,
COc1ccc(-c2noc(CCCC(=O)Nc3ccc(C(N)=O)cc3)n2)cc1OC,.,2,.,-3%,-1.0,
COc1ccccc1N(CC(=O)NC1CCCC1)C(=O)CCC(=O)Nc1cc(C)on1,-29,-4,-3,-4%,-2.8,
# The list continues:
SMILES,YopH PTP inh,Mtb betalactam,Arbovirus inh,Mtb H37Rv,RecA splice inh,others
COc1ccc2oc(C(=O)OCC(=O)N(C)c3c(N)n(Cc4ccccc4)c(=O)[nH]c3=O)c(C)c2c1,.,-8,.,.,-2.6,
Cc1cccc(OCC(=O)OC(C)C(=O)Nc2ccc(S(=O)(=O)N3CCCCC3)cc2)c1 (stereo not given),.,-3,.,.,-1.1,
CCOC(=O)C(NC(=O)c1ccc(OC)cc1)(OCC1(CC)COC1)C(F)(F)F (stereo not given),-48,-5,1,1%,-0.2,
CCc1ccc2c(c1)C(NC(C)=O)C(=O)N2CCN1CCOCC1 (stereo not given),.,2,.,.,49*,
C/C=C(/C)C(=O)Nc1cccc(C2=NOC3(C2)C[C@@H](C(N)=O)N(C(=O)CCCCC)C3)c1 (stereo not given in full),.,-18,.,-6%,-4.2,
CN(C(=O)CN1C(=O)S/C(=C\c2ccc(F)cc2)C1=O)C1CCS(=O)(=O)C1 (stereo not given),.,1,.,.,3.6,
COc1ccc(C(=O)C2CN(c3ccccc3)CC2c2ccc(Cl)cc2)cc1 (stereo not given),1,-11,13,5%,-1.1,
CCOc1ccc(OCCC(=O)OCC(=O)Nc2ccc(N3CCOCC3)cc2)cc1,.,4,.,.,1.1,
CC(=O)NC1C(OCc2ccccc2)OC(CO)C(OC(C)=O)C1OC(C)=O (stereo not given),-24,7,-3,-5%,-0.3,
COc1cc(C(=S)N2CCOCC2)ccc1O,.,2,6,-12%,-0.6,
COC(=O)C1CCCN1S(=O)(=O)c1ccccc1NC(=O)c1cc(OC)c(OC)c(OC)c1 (stereo not given),.,1,.,.,-0.6,
COc1ccc(NC(=O)c2cc(-c3cc(C)ccc3O)n[nH]2)cc1Cl,-22,0,18,-3%,1.2,
Cn1c(=O)n(Cc2ccc(F)cc2)c(=O)c2c1nc1n2CCCN1Cc1ccccc1,-24,-8,-6,16%,-1.2,
CCc1cccc(C)c1NC(=O)CCOc1ccccc1,.,-2,.,.,-1.6,
Cc1ccc2cc(NC(=O)c3ccccc3)ccc2n1,.,14,.,.,3.3,
CCCS(=O)(=O)N1CCN(Cc2ccc(OCc3ccccc3)c(OC)c2)CC1,-25,-5,.,4%,0.0,
CCCc1n[nH]c2c1/C(=N\O)CCC2,-3,18,12,-7%,4.7,
S=c1nc(-c2ccc(Cl)cc2)[nH][nH]1,.,9,.,0%,-1.7,
O=C(CCN1C(=O)C2CC=C(Cl)CC2C1=O)NCc1ccccc1 (stereo not given),-17,-1,11,-1%,-0.2,
Cc1ccc(-c2cc(C(=O)NC3CCN(Cc4ccccc4)CC3)c3ccccc3n2)cc1,.,0,.,.,-1.1,
Cc1c(C(=O)O)oc2c(F)cccc12,.,1,7,2%,2.3,
COc1ccc(CN2C=C3C(=O)C(C)(OC(=O)C4CCCC4)C(=O)C=C3C=C2c2ccsc2)cc1 (stereo not given),.,-1,.,16%,1.7,
Cc1c(NS(=O)(=O)c2cccc(C(=O)NCc3ccncc3)c2)c(=O)n(-c2ccccc2)n1C,-6,1,3,0%,0.8,
Cc1nc(NC(=O)c2cccnc2Cl)sc1C,.,-4,.,.,-0.5,
CC(C)c1nc(Cl)c(C#N)c2c1COC(C)(C)C2,.,2,.,1%,1.4,
# Remaining list, next part
SMILES,YopH PTP inh,Mtb betalactam,Arbovirus inh,Mtb H37Rv,RecA splice inh,others
CCCC(=O)Nc1ccc(-c2ccc(NC(=O)CCC)cc2)cc1,-20,0,-16,1%,0.7,
CN(C)S(=O)(=O)c1ccc2oc(SCC(=O)NCC(F)(F)F)nc2c1,-28,-12,6,-3%,-1.6,
O=C(CNC1CCCCC1)Nc1ccc(Cl)cc1,.,4,.,.,-0.5,
Cc1cn(C(=O)C(C)N2C(=O)c3ccccc3C2=O)c(C)n1 (stereo not given),-4,11,12,-13%,-0.3,
Cc1cc(N)ccc1-c1cc2ccccc2oc1=O,.,3,.,.,-7.0,
COc1ccccc1CCNC(=O)CCn1c(=O)c2cccn2c2ccc(F)cc21,.,-5,.,.,-0.5,
Cc1csc2ncc(C(=O)NCc3ccco3)c(=O)n12,-38,15,5,-3%,3.7,
COc1ccc(N(C)S(=O)(=O)c2cccc(C(=O)OC(C)C(=O)NC3CCCCC3C)c2)cc1 (stereo not given),.,2,.,.,0.6,
CCc1nc2ccccc2c(C(=O)OCC(=O)N2CC(C)OC(C)C2)c1C (stereo not given),.,-6,.,.,-1.2,
Cc1cc([N+](=O)[O-])ccc1NC(=O)C(C)N1CCN(c2ccccn2)CC1 (stereo not given),.,100,6,-8%,-0.9,
O=C(N/N=C1/C(=O)c2cccc3cccc1c23)c1ccc(Cl)cc1,-18,99,-25,?,24,
CCOc1ccccc1CNn1nnnc1N,-27,-9,-2,-1%,-1.6,
O=C(CCN1CCc2ccccc2C1)Nc1ccccc1F,7,2,3,-6%,1.3,
Cc1scc(C(=O)NNC(=S)NC(C)c2ccccc2)c1C (stereo not given),-10,-8,2,8%,4.3,
N/C(=N\OC(=O)c1ccc(Cl)cc1)c1nonc1N,-10,6,-1,4%,-0.8,
CCNC(=O)/C(C#N)=C/c1c(N2CCN(c3ccc(OC)cc3)CC2)nc2c(C)cccn2c1=O,.,13,.,.,-3.6,
COc1ccccc1OCC(=O)n1cc(C(=O)c2cc(Cl)cc(Cl)c2O)cn1,-23,2,14,-1%,1.2,
COc1ccc(Cc2nccc3cc(OC)c(OC)cc23)cc1OC,67*,5,3,-5%,93*,
Cc1ccc(C)c(S(=O)(=O)N2CCCC2CNC(=O)C(=O)NC2CCCCCC2)c1 (stereo not given),.,-6,.,.,1.5,
CO/N=C/Cc1c([N+](=O)[O-])c(C)nn1C,.,1,5,5%,-1.2,
Cc1ccc(-c2cc(-c3ccccc3)c(C#N)c(Br)n2)cc1,-19,10,-24,2%,-3.6,
CC(C)C(OC(=O)C1=Cc2ccccc2OC1)C(=O)NC1CCCC1 (stereo not given),-14,6,8,5%,-1.9,
CCC(C)(C)C(=O)Nc1cc([N+](=O)[O-])ccc1F,-16,1,-1,-2%,0.7,
c1ccc(C(OCCN2CCN(c3ncccn3)CC2)c2ccccc2)cc1,.,-2,.,.,3.6,
CN1CCN(C(=S)c2ccc(-c3cc(Cl)ccc3Cl)o2)CC1,.,77,.,-3%,.,

# Some of these compounds in order of number of heavy atoms, smallest number first:
SMILES,YopH PTP inh,Mtb betalactam,Arbovirus inh,Mtb H37Rv,RecA splice inh,others
CCC(C)(C)C(=O)Nc1cc([N+](=O)[O-])ccc1F,-16,1,-1,-2%,0.7,
Cc1csc2ncc(C(=O)NCc3ccco3)c(=O)n12,-38,15,5,-3%,3.7,
Cc1cn(C(=O)C(C)N2C(=O)c3ccccc3C2=O)c(C)n1 (stereo not given),-4,11,12,-13%,-0.3,
O=C(N/N=C1/C(=O)c2cccc3cccc1c23)c1ccc(Cl)cc1,-18,99,-25,?,24,
Cc1cc([N+](=O)[O-])ccc1NC(=O)C(C)N1CCN(c2ccccn2)CC1 (stereo not given),.,100,6,-8%,-0.9,
COc1ccc(N(C)S(=O)(=O)c2cccc(C(=O)OC(C)C(=O)NC3CCCCC3C)c2)cc1 (stereo not given),.,2,.,.,0.6,

# Additional records follow.
SMILES,YopH PTP inh,Mtb betalactam,Arbovirus inh,Mtb H37Rv,RecA splice inh,others
CCSc1nc2ccccc2n1CCC(=O)O,-6,5,2,3%,29,
CC(C)OC(=O)CSc1nc(N)c(C#N)cc1C#N,.,7,1,5%,-10,
O=C(NCc1ccncc1)C12CC3CC(CC(C3)C1)C2,-24,-10,1,-9%,-2.7,
CC(C)N1CCC(N2CCN(Cc3cnc(-c4ccccc4)s3)CC2CCO)CC1 (stereo not given),.,5,-1,-4%,1.5,
CCN(CC(=O)NCc1ccc2c(c1)OCO2)S(=O)(=O)c1ccc(F)cc1,.,-4,.,.,-0.3,
COc1ccc(-c2csc(N3CCN(C(=O)c4ccco4)CC3)n2)cc1,-11,3,-11,-13%,1.7,Arbovirus inh repeat=2
CCOC(=O)c1sc2nc(C)nc(SCC(=O)N(C)C3CCS(=O)(=O)C3)c2c1C (stereo not given),.,-2,20,7%,2.4,
CN(C(=O)c1ccc(OC2CCN(C(=O)c3cccnc3)CC2)cc1)C1CCCCC1,.,3,5,-2%,2.9,
Cc1cccc(-c2noc(CN(C(=O)c3ccc(Br)o3)C(C)C)n2)c1,-24,-5,3,7%,10,
C/C(=N\NC(=O)COc1c(C)cccc1C)c1cccs1,.,4,-12,3%,-0.3,
Cc1cc(C)n(C(=O)CCNC(=O)c2ccccc2Cl)n1,-23,1,10,2%,-0.5,
CC1(COS(N)(=O)=O)CCCCC1,.,15,.,.,2.7,
CC(=O)c1cn(CC(=O)Nc2ccc(C)cc2C)c2ccccc12,0,-7,15,-1%,-0.5,
C=CCOC(=O)C1=C(C)NC(=O)NC1C1CC=CCC1 (stereo not given),-33,-8,1,-1%,2.4,
Cc1ccc(-c2cc(C(=O)N/N=C/c3ccoc3)c3ccccc3n2)cc1,.,-3,.,.,-1.3,
COc1ccc2nc(Cl)c(C#N)cc2c1,.,-5,5,5%,-2.5,
Cc1cc(C)nc(NCCC(=O)O)n1,.,2,-2,-3%,1.7,
CC(C)Oc1nc(-c2ccccc2Cl)nc2ccccc12,.,-1,.,6%,4.1,

# Reprinted at random: 2 compounds from above, in no set order.
SMILES,YopH PTP inh,Mtb betalactam,Arbovirus inh,Mtb H37Rv,RecA splice inh,others
S=c1nc(-c2ccc(Cl)cc2)[nH][nH]1,.,9,.,0%,-1.7,
CCSc1nc2ccccc2n1CCC(=O)O,-6,5,2,3%,29,
